GCN5L2 inh = qHTS Assay for Inhibitors of GCN5L2; Potency, µM (highest dose often 58.9 µM), for inactives: at the top dose activity change, negative = inhibition, usual class: inhibitors; hit rate 0.21% among 390,000; GCN5L2 HAT assay, ThioGlo1 CoA-SH fluorescence; active means well fitted inhibition curve with a large enough effect; inconclusive means small, poorly fitted or top-dose-only effect, or another doubt; inactive means no such curve, though single readings can be large or run the other way
Target sequence (Q92830 whole entry, looked up): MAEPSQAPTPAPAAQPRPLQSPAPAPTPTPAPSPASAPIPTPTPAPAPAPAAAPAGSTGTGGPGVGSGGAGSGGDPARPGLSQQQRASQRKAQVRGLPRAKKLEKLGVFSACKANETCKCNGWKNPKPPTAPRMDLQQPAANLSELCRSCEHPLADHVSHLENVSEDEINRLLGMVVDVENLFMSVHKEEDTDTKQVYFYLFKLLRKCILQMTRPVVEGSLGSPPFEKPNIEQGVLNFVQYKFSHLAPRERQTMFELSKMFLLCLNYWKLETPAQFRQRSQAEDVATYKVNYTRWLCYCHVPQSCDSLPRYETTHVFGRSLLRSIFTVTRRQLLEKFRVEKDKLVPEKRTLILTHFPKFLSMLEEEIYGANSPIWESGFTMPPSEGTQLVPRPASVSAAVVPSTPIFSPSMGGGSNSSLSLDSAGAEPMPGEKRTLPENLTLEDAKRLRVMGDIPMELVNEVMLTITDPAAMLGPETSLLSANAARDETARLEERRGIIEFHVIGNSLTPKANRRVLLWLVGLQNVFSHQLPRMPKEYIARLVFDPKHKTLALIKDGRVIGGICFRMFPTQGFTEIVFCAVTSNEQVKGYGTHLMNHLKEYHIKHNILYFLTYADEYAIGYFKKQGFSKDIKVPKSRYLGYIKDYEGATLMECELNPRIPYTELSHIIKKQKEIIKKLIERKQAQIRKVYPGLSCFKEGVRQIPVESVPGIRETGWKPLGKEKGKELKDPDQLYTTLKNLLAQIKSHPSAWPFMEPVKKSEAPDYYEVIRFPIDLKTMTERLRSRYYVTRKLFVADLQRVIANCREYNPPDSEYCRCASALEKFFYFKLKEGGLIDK
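Free CoA generated was detected with ThioGlo1 (50uM) fluorescence at Ex340nm/Em540nm, read immediately and after 20 min at room temperature. Enzyme, 20 nM in HEPES pH 7.5 buffer, saw compounds 15 min before adding 75uM H3(1-25) peptide and 70uM acetyl-CoA.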
Active calls of the source: *; ? = inconclusive; & = joins results of further samples; [ ] = another dose, or the depositor's remark. On the % scale 0 is the no-effect control and ±100 the full control effect; potency means the concentration at half of the fitted maximal effect. These rows are one share of the data, and most or all hits are left out here.

The first 6 compounds, ahead of the listing:
SMILES	GCN5L2 inh
Cc1ccccc1NC(=O)c1ccc(N(Cc2ccccc2)S(C)(=O)=O)cc1	-19.3%
Cc1cccc2cc(CN(CC3CCCO3)C(=O)c3ccncc3)c(=O)[nH]c12 (configuration not stated)	-0.4%
O=C(NC1CCCCCC1)C(=S)N1CCCC1	-7.6%
Brc1ccc(-c2cnc3n2CCCC3)cc1	-8.9%
CC(C)(C)C(=O)NC1CCN(CC(=O)Nc2ccc3c(c2)OCO3)CC1	-2.2%
COc1cc(CCN2C(=O)c3cccc4cccc(c34)C2=O)c(S(=O)(=O)N2CCCCCC2)cc1OC	-3.1%

The whole of this part, from the start:
SMILES	GCN5L2 inh
Cc1ccccc1NC(=O)c1ccc(N(Cc2ccccc2)S(C)(=O)=O)cc1	-19.3%
Cc1cccc2cc(CN(CC3CCCO3)C(=O)c3ccncc3)c(=O)[nH]c12 (configuration not stated)	-0.4%
O=C(NC1CCCCCC1)C(=S)N1CCCC1	-7.6%
Brc1ccc(-c2cnc3n2CCCC3)cc1	-8.9%
CC(C)(C)C(=O)NC1CCN(CC(=O)Nc2ccc3c(c2)OCO3)CC1	-2.2%
COc1cc(CCN2C(=O)c3cccc4cccc(c34)C2=O)c(S(=O)(=O)N2CCCCCC2)cc1OC	-3.1%
COc1ccc(Cn2ccn(Cc3cccc(C)c3)c(=O)c2=O)cc1	-5.9%
COc1ccc(OCC(=O)OCC(=O)Nc2cc(S(=O)(=O)N3CCOCC3)ccc2Cl)cc1	-3.7%
CN1CCN(C(=S)Nc2ccc(Oc3ccccc3)cc2)CC1	-6.8%
Cc1cc(=O)[nH]c(SCC(=O)Nc2c(C)n(C)n(-c3ccccc3)c2=O)n1	-1.4%
N#C/C(=C\c1ccc(Cl)cc1)c1n[nH]c(Cn2cncn2)n1	-1.1%
O=C(Nc1ccc2nc(SCc3ccc(Cl)cc3)sc2c1)c1ccccc1C(=O)N1CCOCC1	-18.5%
O=C(Nc1ccc(F)cc1F)N1CCCN(CCOc2ccccc2)CC1	1.2%
Cc1oc(-c2cccc(Cl)c2)nc1CSc1nc2c(c(=O)[nH]1)CCC2	-1.6%
COc1nnc(-c2ccc(N3CCOCC3)c(NC(=O)c3ccccc3)c2)c2ccccc12	0.0%
CCn1c(SCC(=O)N2CCCc3ccccc32)nc2c1c(=O)n(C)c(=O)n2C	0.0%
Nc1ncn([C@H]2O[C@@H](CO)[C@@H](O)[C@@H]2O)c(=O)n1	0.0%[21.4 µM]
Cc1ccc(-c2ccc(=O)n(Cc3ccc(F)cc3)n2)cc1	-23.6%&-3.1%
CC(=O)n1cc([C@@H]2C=C(C(=O)N3CCOCC3)O[C@H](OCc3ccc(CO)cc3)C2)c2ccccc21	0.5%
Cc1ccc(S(=O)(=O)NC(=O)Nn2c(C)nnc2C)cc1	0.2%
CCN1CCN(c2csc3ccc(F)cc3c2=O)CC1	?
COc1cccc(S(=O)(=O)NCc2ccc(C(=O)Nc3ccc(Cl)c(Cl)c3)cc2)c1	-9.5%
CCOC(=O)C1=NN(C(=O)Cc2ccccc2)C(O)(C(C)(C)C)C1 (configuration not stated)	-5.0%
O=C(Cc1c2ccccc2nc2ccccc12)c1ccccc1	-3.0%
CCOC(=O)CC(=O)CSc1nc(C)cc(C)c1C#N	-2.1%

Ordered by the number under GCN5L2 inh (rising): some entries from above
SMILES	GCN5L2 inh
COc1ccc(OCC(=O)OCC(=O)Nc2cc(S(=O)(=O)N3CCOCC3)ccc2Cl)cc1	-3.7%
CC(C)(C)C(=O)NC1CCN(CC(=O)Nc2ccc3c(c2)OCO3)CC1	-2.2%
O=C(Nc1ccc(F)cc1F)N1CCCN(CCOc2ccccc2)CC1	1.2%

The listing picks up, repeating the two entries before the break.
SMILES	GCN5L2 inh
O=C(Cc1c2ccccc2nc2ccccc12)c1ccccc1	-3.0%
CCOC(=O)CC(=O)CSc1nc(C)cc(C)c1C#N	-2.1%
CC1CCN(C(=O)CCC(=O)Nc2nnc(C(F)(F)F)s2)CC1	-4.0%
CC1CCCC(NC(=O)c2cccc(S(=O)(=O)NCc3ccccc3)c2)C1C (configuration not stated)	-5.6%
C/C(Cn1nnc2ccccc21)=N/OC(=O)c1c(F)cccc1F	1.5%
CCOC(=O)c1nnn(-c2nonc2N)c1CSc1ccccc1	-2.7%
COc1cc(/C=C(\C#N)c2nc3ccccc3[nH]2)ccc1OC(=O)c1ccco1	-22.2%
CC(=O)Nc1ccccc1-c1nc2ccccc2nc1OCC(=O)c1ccc2ccccc2c1	-1.7%
N/C(=N\OC(=O)Oc1ccccc1)c1ccc(Br)cc1	-0.3%
CS(=O)(=O)N(CC(=O)Nc1ccc(Cl)c(Cl)c1)C1CCCCC1	-4.7%
CC1=C(c2ccc(C)c(C)c2)S(=O)(=O)N=C1N1CCC(C(=O)Nc2cccc(F)c2)CC1	-5.3%
COc1cccc(CCC(=O)N2CCC(n3nccc3NC(=O)CC(C)C)CC2)c1	-5.5%
CCN(C(=O)CSc1nc2ccccc2nc1Cc1cccc(OC)c1)c1cccc(C)c1	-10.3%
O=C(c1sc2ccccc2c1Cl)N1CCN(c2ccccc2F)CC1	-10.1%
CCOC(=O)N1CCC(NC(=O)Cn2cc3c(n2)CCCC3)CC1	-9.8%
Cn1c(NCc2cc(Br)ccc2O)nc2ccccc21	-24.3%
COc1ccccc1N1CCN(C(=S)NC(=O)/C=C/c2ccccc2)CC1	-8.0%
NC(=O)CSc1nc(N)c2c3c(sc2n1)CCCCC3	-17.6%
C[C@H](CO)N1C[C@H](C)[C@@H](CN(C)S(=O)(=O)c2ccccc2)Oc2ccc(NC(=O)c3ccncc3)cc2C1=O	-0.8%
CC(=O)N1CCC(N(CCN2CCOCC2)C(=S)Nc2cc(C)cc(C)c2)CC1	-13.0%
CC(OC(=O)c1cc(S(=O)(=O)N2CCOCC2)ccc1Br)C(=O)N1CCOCC1 (configuration not stated)	2.9%
N#Cc1cccc(S(=O)(=O)Nc2c(NC3CCCCC3)c3ccccc3oc2=O)c1	-22.4%
COc1ccc(NC(=O)C(CC(=O)O)Cc2ccc(C)cc2)cc1 (configuration not stated)	-0.3%
COc1ccc(CNC(=O)CC(c2ccc(OC)c(OC)c2)N2Cc3ccccc3C2=O)cc1 (configuration not stated)	-1.6%
O=C(CCCN1C(=O)c2cccc3cccc(c23)C1=O)NCc1cccs1	2.0%
CN(c1ncc(C(F)(F)F)cc1Cl)n1cc(C(=O)O)c2ccccc2c1=O	-3.1%
COc1ccc(OC)c(Nc2nnc(C)c(=O)[nH]2)c1	-4.7%
Remaining list, next part:
SMILES	GCN5L2 inh
CCN(c1ccccc1)S(=O)(=O)c1ccc(C(=O)Nc2nnc(COC)o2)cc1	-2.2%
CCN(CC(=O)NCc1cccs1)C(=O)CCOc1ccccc1	-0.6%
COc1cc(/C=C/C(=O)NNc2c(F)c(F)cc(F)c2F)ccc1OC(F)F	-4.8%
CCC(=O)N1CCc2cc(S(=O)(=O)N3CCc4ccccc43)ccc21	2.1%
Cc1c(C(=O)N2CCCCC2)sc(NC(=O)c2ccco2)c1C#N	-7.2%
CCOc1ccc(C2C(C(=O)c3ccc(C)o3)=C(O)C(=O)N2c2nc(C)c(C(=O)OC)s2)cc1 (configuration not stated)	-9.8%
Cc1cccc2cn[nH]c12	-3.4%
COc1cccc(OC)c1C(=O)Nc1ccc(C(=O)NCc2ccccc2)cc1	-11.9%
CNC(=O)Nc1ccc2snnc2c1	-3.2%
CCN1C(=O)[C@H]2[C@@H](c3ccc(-c4ccc5c(c4)OCO5)c(OC)c3)N[C@@](CC(C)C)(C(=O)OC)[C@H]2C1=O	-13.7%
Cc1onc(-c2ccccc2)c1C(=O)N1CCN(S(=O)(=O)c2ccc(OC(F)(F)F)cc2)CC1	-24.4%
O=C(C1CCC1)N1CCN(Cc2ccccc2)CC1	-1.4%
CNC(=O)C1CC(=O)N/C(=N/N=C(\C)c2cccs2)S1 (configuration not stated)	?
CCNC(=S)NCCN1CCCCC1	0.0%
O=C(NCc1ccccc1)C(c1ccc(O)cc1)N(C(=O)Cn1nnc(-c2cccs2)n1)c1ccc2c(c1)OCCO2 (configuration not stated)	-6.2%
C=CCNC(=O)c1sc(SC)cc1-c1ccc(Cl)cc1	3.4%
COc1c(N2CCN[C@H](C)C2)c(F)cc2c(=O)c(C(=O)O)cn(C3CC3)c12	-8.5%
Cc1cccc(NC(=O)c2cccc(S(=O)(=O)N(C)c3ccccc3)c2)n1	-6.7%
CC1(C)C(=O)OC(C(=O)c2ccccc2)C(C)(C)C1=O (configuration not stated)	-1.9%
CCN1C(=O)CS/C1=N\S(=O)(=O)c1ccc(C)cc1	-5.1%
C=CCn1c(N)c(C(=O)OCCC)c2nc3ccccc3nc21	?
O=C(Nc1ccc(Cl)c([N+](=O)[O-])c1)c1cnccn1	-3.7%
C[C@@H]1/C(=N/O)CC2C[C@@H]1C2(C)C	1.5%
CN1CCN(Cc2c(C(=O)N/N=C/c3cccc(Br)c3)nnn2-c2nonc2N)CC1	-8.6%
O=C(c1ccc(F)cc1)N1CCC(C(=O)N2CCN(S(=O)(=O)c3cccc([N+](=O)[O-])c3)CC2)CC1	-0.1%
New compounds follow
SMILES	GCN5L2 inh
C=CCOCCN(C)C1=NS(=O)(=O)c2cc([N+](=O)[O-])ccc21	-3.5%
Cc1nnc(SC(C)C(=O)Nc2ccc3ccccc3c2)[nH]c1=O (configuration not stated)	-2.6%
Cc1ccc(CCNC(=O)CNC(=S)N(Cc2ccccc2)Cc2cccnc2)cc1	-3.3%
O=C(Nc1ccccc1)N1CCCN(c2c(Cl)cncc2Cl)CC1	3.0%
[O-][N+]12CCN(CC1)c1ccccc12	0.8%
CCCN1C(=O)CN(C2CCCCCC2)C(=O)C1c1ccc(OCC)c(OC)c1 (configuration not stated)	-18.9%
O=S(=O)(c1ccc(S(=O)(=O)N(Cc2ccc(F)cc2)C2CCCC2)cc1)N1CCCC1	-5.9%
Cc1cccc(C)c1NC(=O)CNc1ccccc1	-29.7%
O=C(Nc1nncs1)C1CC(=O)N(CCc2ccc(F)cc2)C1 (configuration not stated)	-7.3%
Cc1ccc2c(CC(=O)NCC(=O)Nc3c(C)cccc3C)coc2c1	2.2%
COc1cc(CCC(=O)NCc2ccc3c(c2)CCN3C(=O)c2ccc(F)cc2)cc(OC)c1OC	1.8%
COc1ccc(NC(=O)C(c2ccccn2)N(C(C)=O)c2ccc(C)cc2)cc1 (configuration not stated)	0.2%
COc1cc(CNCCN2CCOCC2)ccc1OCc1ccc(Cl)cc1Cl	-2.5%
CC(=O)NCc1c(Cl)cccc1-n1cccc1	-2.8%
COC(=O)C1=C(C)NC(C)=C(C(=O)OC)C1c1ccccc1[N+](=O)[O-]	-22.5%
Nc1nc(-c2ccc(Br)cc2)c(S(=O)(=O)c2ccccc2)s1	-7.0%
COc1ccc(/C=N/NC(=O)Cn2ccnc2C)cc1OC	-1.7%
CCOc1cccc2cc(C(C)=O)oc12	13.4%
O=C(Cn1nc(-c2ccccc2)c2ccccc2c1=O)Nc1cccnc1	1.9%
COc1ccc2c(c1)c1c(c(=O)n(-c3ccc(F)c(Cl)c3)c(=O)n1Cc1ccccc1C)n2C	-7.8%
CCCN(CC(=O)Nc1ccccc1OC)C(=O)CSc1ccc(Br)cc1C	-8.4%
Cc1ccc(C)c(N2CCN(C(=O)C3CCN(S(=O)(=O)c4cn(C)cn4)CC3)CC2)c1	-8.1%
Cc1ccc(C(=O)Nc2ccc(C(=O)/C=C/c3cccs3)cc2)cc1	-4.5%
CC1(C)S[C@@H]2[C@H](NC(=O)C3(N)CCCCC3)C(=O)N2[C@H]1C(=O)O	14.8%[21.4 µM]
CNCC(O)c1cccc(O)c1 (configuration not stated)	7.4%
COc1ccc([C@H]2CC(=O)C=C(c3ccc(Cl)c(C(F)(F)F)c3)C2)cc1	-19.5%
